E coli growth: E. coli growth inhibition, primary screen, OD600. Escherichia coli growth, 23 h; hits give low values. AID 1053175, 2014. 330,000 tested, 0.21% active. OD600 absorbance (concentration not given with the values);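 active = OD600 absorbance below the run mean of sample wells minus 3.6 SD, in any replicate, cut at about 0.56 in these data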;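 also: stock transfer was 300 nL into about 60 µL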
FGF22 binding: binders of human FGF22 protein, primary screen, FGF22 synaptogenesis inhibitor project, biophysical, thermal shift, single point | recombinant FGF22 thermal shift, SYPRO orange fluorescence; percent of sucrose octasulfate shift, DMSO zero | calls only at 9.99 µM | 340,000 tested, 1.5% active | AID 651658, 2012;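 active = melting point raised past a set limit in the mean and every replicate; inconclusive = no clear call; three in four hits are not shown here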
Target sequence (Q9HCT0 whole entry, looked up): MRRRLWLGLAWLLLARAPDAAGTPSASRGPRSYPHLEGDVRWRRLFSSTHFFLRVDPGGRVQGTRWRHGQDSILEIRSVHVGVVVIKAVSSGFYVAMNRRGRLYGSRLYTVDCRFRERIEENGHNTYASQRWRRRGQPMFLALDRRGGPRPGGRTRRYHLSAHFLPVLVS
Vif A3G: inhibitors of Vif binding to APOBEC3G peptide, primary screen, biochemical, TR-FRET, GST-Vif 1-94, biotin-A3G peptide, dose response retest (AID 1117319); TR-FRET GST-Vif / biotin-A3G peptide binding; higher % means a stronger effect; test concentration not given here; strong numbers were not always called active; one-dose inhibition, %; IC50 in µM for titrated hits; 260,000 tested, 0.57% active;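 active = above the screen mean plus three standard deviations and confirmed in dose response; inconclusive = results disagree or hit not tested in dose response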;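 also: Vif residues 1-94 fused to GST binding biotinylated APOBEC3G peptide 110-148; 0% = full assay without inhibitor and 100% = GST in place of GST-Vif; retest series ran down from 100 µM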
MLL AF4-AF9 inh: inhibitors of AF4 peptide binding to AF9, primary screen, biochemical, AlphaScreen, biotin-AF4 peptide, FLAG-AF9, single point; AID 651704, 2012; 350,000 tested, 0.47% active; inhibition, % at 10 µM;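 active = every replicate reaching a set inhibition limit, whatever the replicate mean, cut at about 25% in these data; inconclusive = mean inhibition reaches that limit but some replicates miss it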;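 also: 0% = plate neutral control median and 100% = total signal loss; the record names both 10 and 1 µM as test concentration; the first replicate is given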
Target sequence (P42568 whole entry, looked up): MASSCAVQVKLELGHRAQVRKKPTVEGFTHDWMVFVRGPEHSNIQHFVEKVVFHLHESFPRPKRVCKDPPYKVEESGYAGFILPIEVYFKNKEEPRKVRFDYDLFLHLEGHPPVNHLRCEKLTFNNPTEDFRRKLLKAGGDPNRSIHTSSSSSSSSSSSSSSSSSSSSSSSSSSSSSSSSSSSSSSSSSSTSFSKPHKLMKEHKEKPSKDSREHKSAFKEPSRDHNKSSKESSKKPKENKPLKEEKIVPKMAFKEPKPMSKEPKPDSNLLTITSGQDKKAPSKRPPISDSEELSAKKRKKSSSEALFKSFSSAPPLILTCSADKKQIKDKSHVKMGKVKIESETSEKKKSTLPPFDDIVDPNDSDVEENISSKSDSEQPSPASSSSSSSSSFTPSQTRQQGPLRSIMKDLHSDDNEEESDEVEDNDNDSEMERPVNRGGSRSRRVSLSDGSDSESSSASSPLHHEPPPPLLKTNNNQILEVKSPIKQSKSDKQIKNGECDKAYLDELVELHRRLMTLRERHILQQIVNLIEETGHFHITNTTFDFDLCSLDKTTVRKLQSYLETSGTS
UCH37 DUB inh: inhibitors of human UCH37 deubiquitinase, primary screen, biochemical, Ub-AMC cleavage, fluorescence; Ubiquitin carboxyl-terminal hydrolase isozyme L5 (Homo sapiens), Q9Y5K5; purified proteasome/UCH37; 330,000 tested, 0.33% active; AID 588478, 2011; inhibition, % (no concentration beside the values);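 active = mean of two replicates above 20%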;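 also: 0% = compound-free wells with enzyme and 100% = wells lacking proteasome; stock transfer was 100 nL into about 20 µL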
Target sequence (Q9Y5K5 whole entry, looked up): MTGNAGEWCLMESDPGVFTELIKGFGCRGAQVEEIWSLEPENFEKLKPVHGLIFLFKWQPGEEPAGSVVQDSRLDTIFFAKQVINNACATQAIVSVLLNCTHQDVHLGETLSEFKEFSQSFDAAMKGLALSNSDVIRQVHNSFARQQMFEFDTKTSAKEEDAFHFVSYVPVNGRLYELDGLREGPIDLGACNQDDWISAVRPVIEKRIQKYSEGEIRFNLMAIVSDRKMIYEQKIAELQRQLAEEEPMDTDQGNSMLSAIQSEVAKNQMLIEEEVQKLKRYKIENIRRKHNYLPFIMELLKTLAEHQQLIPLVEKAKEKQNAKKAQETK
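Material: Human UCH37 enzyme supplied as purified proteasome complex | Schedule: 30 min compound-proteasome preincubation then 25 min substrate reaction, room temperature | Detection: AMC fluorescence from Ub-AMC cleavage, excitation 355 nm, emission 460 nm | Benchmarks: Wells without proteasome as full block, compound-free enzyme plus substrate as uninhibited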
RanGTP-Imp inh: inhibitors of RanGTP-importin-beta interaction, primary screen, biochemical, FRET, CFP-Ran, YFP-importin-beta, homogeneous. cell-free CFP-Ran/YFP-importin-beta FRET ratio. 300,000 tested, 1.1% active. inhibition, % (concentration not given with the values). Ran GTPase (GTP-bound) - importin-beta complex;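 active = most replicates above 15%; inconclusive = exactly half above 15%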;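 also: 0% = DMSO wells and 100% = Ran loaded with GDP instead of GTP; wells of about 40 µL received 100 nL stock; the first replicate is given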
HNF4A DNA FP: change in binding of human HNF4A to DNA, primary screen, biochemical, fluorescence polarization, FITC-DNA | 1 h | activity change, % at 10 µM | 360,000 tested, 0.3% active; in the data active = activity change above about 30%, passing the limit was not always enough;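 also: controls were the assay level and a saturating level of protein; the project sought stronger binding though the title names inhibitors; some compounds called inactive have numbers as strong as hits; positive values seem to mean higher polarization but the record does not say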
* = called active by the depositor; i = inactive; ? = inconclusive; . = no result given; & = joins results of further samples. This is a subset, so the mix of outcomes need not match the whole.

The line under a structure holds: E coli growth	FGF22 binding	Vif A3G	MLL AF4-AF9 inh	UCH37 DUB inh	RanGTP-Imp inh	HNF4A DNA FP
> CCc1cccc(C)c1N(C(=O)Cn1c(=O)[nH]c2ccccc21)C(C)COC (stereo unspecified)
  0.73	.	13%	.	-0.5	0.2	-0.9
> CCOC(=O)C1CCN(CC(=O)Nc2c(C(=O)OC)[nH]c3cccc(C)c23)CC1
  0.71	.	1%	.	-1.9	-5.1	2.2
> COCc1ccc(-c2c(-c3ccc(OC)cc3)oc(=O)c3cc(OC)c(OC)cc23)cc1
  0.69	i	.	3.0	-4.4	.	-5.3
> CCN(C(=O)COC(=O)c1cc(-c2ccccc2)nn1-c1ccccc1)C1CCS(=O)(=O)C1 (stereo unspecified)
  0.72	i	-4%	-2.3	-0.3	-0.3	1.6
> CCC1Nc2ncnc(N3CCOCC3)c2N(Cc2ccc(OC)cc2)C1=O (stereo unspecified)
  0.73	i	.	-18	-1.0	.	-2.1
> O=C(CCc1ccc(S(=O)(=O)NC2CCCCC2)cc1)NCc1ccc(Cl)cc1
  0.78	.	1%	.	4.5	-1.2	1.2
> c1ccc(NC2=NCCN2CCC2CCCCC2)cc1
  0.67	i	.	0.1	1.7	-2.2	1.8
> COc1cc(C2N(c3ccccc3)CCN2c2ccccc2)cc(OC)c1OC
  0.69	.	6%	.	5.6	2.6	-0.8
> CCCc1nnc(NC(=O)CS(=O)(=O)c2ccccc2)s1
  0.69	i	.	0.2	1.0	-2.7	0.4
> CCc1cccc(C)c1NC(=O)C1CC(=O)N(C2CCCC2)C1 (stereo unspecified)
  0.65	i	-7%	0.0	0.0	.	1.4
> Cc1ccc(-c2csc3nc4cc(C(=O)NC5CCC(O)CC5)ccc4c(=O)n23)cc1 (stereo unspecified)
  0.69	i	-4%	-5.6	-24	6.4	0.1
> C[C@H]1CN([C@@H](C)CO)C(=O)CCCn2cc(nn2)CO[C@@H]1CN(C)C(=O)Nc1ccc(F)cc1
  .	i	3%	0.8&-2.3&-2.0	.	.	2.4
> CC(C)C[C@]1(c2ccccc2)ON(c2ccccc2C(F)(F)F)C1=O
  0.68	i	.	-11	3.3	.	-0.6
> COc1ccc(CN2CN=C(Nc3nc4ccccc4s3)NC2)cc1
  0.65	.	0%	.	5.2	.	13
> CC(C)(CO)N=C1NS(=O)(=O)c2cc([N+](=O)[O-])ccc21
  0.7	i	9%	2.1	1.2	-2.5	-1.2

(next part)
The line under a structure holds: E coli growth	FGF22 binding	Vif A3G	MLL AF4-AF9 inh	UCH37 DUB inh	RanGTP-Imp inh	HNF4A DNA FP
> C(=C\c1nc(N2CCCCCC2)c2ccccc2n1)/c1ccccc1
  0.66	.	-3%	.	-13	8.6	1.1
> CCCS(=O)(=O)N1CCC(C(=O)NCCCN(C)Cc2ccccc2)CC1
  0.72	.	27%	.	-3.1	1.0	-2.7
> COc1ccc(OCC(=O)N(C)CC2COc3ccccc3O2)cc1 (stereo unspecified)
  0.69	i	.	0.8	0.5	.	0.0
> CCOC(=O)C1C(=O)OC(C)(C)C1C(C)C(=O)c1ccc(OC)cc1 (stereo unspecified)
  0.7	.	0%	.	5.0	2.4	4.4
> O=C(CCCn1c(=O)c2sccc2n(CC(=O)NCC2CCCO2)c1=O)NCc1ccco1 (stereo unspecified)
  0.66	i	-4%	.	3.5	?	-1.6
> C=CCN(CC=C)Cc1cc(=O)oc2cc(OC)c(Cl)cc12
  .	i	.	-1.6	.	.	5.5
> C[C@@H]1CN([C@@H](C)CO)C(=O)CCCn2cc(nn2)CO[C@H]1CN(C)C(=O)c1ccc2ccn(C)c2c1
  .	i	-1%	-8.6&1.1&-3.2	.	.	4.3
> COc1ccc(CCNC(=O)c2ccc(OCC(=O)N3CCOCC3)c(OC)c2)cc1OC
  0.72	i	.	-0.6	4.5	0.1	3.8
> CCc1nnc(NC(=O)CSc2nnc(Cc3ccccc3)n2-c2ccc(OC)cc2)s1
  0.7	.	76%	.	3.0	0.4	-2.1
> CN1CCC(=O)N([C@H](CN=[N+]=[N-])c2ccccc2)CC1
  .	i	.	1.5	-1.0	-2.4	-18
> CCSc1nnc(-c2cc(Br)ccc2NC(C)=O)c(=O)[nH]1
  0.67	i	-8%	-2.8	4.7	0.8	0.8
> Cc1cc(C)n2nc(C(=O)OCC(=O)N(C)Cc3ccccc3)nc2n1
  0.69	i	-3%	-20	7.5	?	-1.6
> COc1ccc(OC)c2c(C)cc(N3CCCCCC3)nc12
  0.68	i	.	3.8	-22	-3.3	-0.6
> COc1ccc(C)cc1NC(=O)NNC(=O)C(C)Oc1ccc([N+](=O)[O-])cc1 (stereo unspecified)
  0.7	i	-4%	1.2	3.8	1.9	0.6
> CCN1C(=O)[C@@H]2[C@H](C1=O)[C@@H]1C(=O)Nc3ccccc3C(=O)N1[C@@H]2c1cccc(OC)c1
  .	i	.	-1.5	2.0	-0.8	1.6

(further entries)
The line under a structure holds: E coli growth	FGF22 binding	Vif A3G	MLL AF4-AF9 inh	UCH37 DUB inh	RanGTP-Imp inh	HNF4A DNA FP
> Cc1cc(C)n(-c2nc3c(c(=O)n(C)c(=O)n3C)n2CCO)n1
  0.71	i	-6%	-0.9	1.0	-1.9	3.5
> CC1S/C(=N/N=C/c2ccco2)NC1=O (stereo unspecified)
  .	.	>100µM*	.	.	2.9	2.5
> Cc1ccc(CNC(=O)c2cc(-c3ccccc3C)n(CC3CC(c4cccc([N+](=O)[O-])c4)=NO3)n2)cc1 (stereo unspecified)
  0.73	i	.	-2.2	2.3	.	5.3
> Cc1ccc(C(=O)NNC(=O)CCC(=O)Nc2cc(C)on2)cc1
  0.71	.	.	.	0.6	-5.1	-2.6
> Cc1cccc(NC(=O)CN2CCN(C(=O)c3ccc(-c4nc5ccccc5s4)o3)CC2)c1C
  0.65	.	-8%	4.8	-5.5	.	-3.9
> COc1ccccc1N1CCN(/N=C/c2c(C)nn(-c3ccccc3)c2C)CC1
  .	.	11%	.	.	3.8	-0.4
> O=C(Cc1cccc2ccccc12)NCCC1=CCCCC1
  0.7	.	0%	.	5.2	0.0	1.1
> CSc1nc2c(cc1C#N)C(=O)CC(C)(C)C2
  0.67	i	.	-0.4	1.5	1.9	2.5
> O=C(CCSc1ccccc1Cl)NNC(=O)c1ccncc1
  0.67	i	-6%	-1.3	4.9	2.2	1.7
> Cc1ccc(C2(C)NC(=O)N(Cc3c(C)noc3C)C2=O)cc1 (stereo unspecified)
  0.69	.	13%	.	4.0	1.8	1.8
> COCCn1c(=NC(=O)C(C)(C)C)sc2cc([N+](=O)[O-])ccc21
  0.71	i	-1%	-3.5	2.8	1.0	-2.3
> O=C(Cc1c(C(=O)O)[nH]c2ccc(Cl)cc12)Nc1ccc2c(c1)OCCO2
  0.71	.	?	.	-0.6	-4.0	-1.1
> CC(Sc1nnc(C2CC2)n1C1CC1)C(=O)N(C)C1(C#N)CCCCC1 (stereo unspecified)
  0.69	i	-4%	4.0	0.3	.	1.9
> O=C1c2ccccc2C(=O)c2cc(N3CCCCC3)ccc21
  0.69	.	-3%	11	-0.4	.	-6.7
> COC(=O)Nc1ccc(S(=O)(=O)n2cnc3ccccc32)cc1
  0.68	.	5%	.	1.3	-4.7	4.0

Next part.
The line under a structure holds: E coli growth	FGF22 binding	Vif A3G	MLL AF4-AF9 inh	UCH37 DUB inh	RanGTP-Imp inh	HNF4A DNA FP
> CCCNC(=O)c1cc(C2CCCN(C(=O)c3cc(C(C)(C)C)nn3C)C2)on1 (stereo unspecified)
  .	i	.	-3.8	.	.	2.3
> CN1C(=O)c2oc3ccccc3c(=O)c2C1c1ccncc1 (stereo unspecified)
  0.76	.	3%	.	0.3	2.7	-1.2
> C/C(=N\N1C(=O)c2ccccc2NC1c1ccco1)c1ccccc1O (stereo unspecified)
  .	i	3%	7.0	.	2.3	-2.4
> CCOc1ccc(NC(=O)CSc2nc(=O)n(Cc3ccccn3)c3c2CCC3)cc1
  0.68	i	.	-0.8	1.2	1.8	-0.2
> O=C(Cc1ccc(NC(=O)C2CCCN(C(=O)C3CCCC3)C2)cc1)Nc1cccc(C(=O)N2CCCCC2)c1 (stereo unspecified)
  0.71	i	1%	-2.3	0.6	.	1.2
> COc1cccc(C(C(=O)NC(C)(C)C)N(C(=O)CCC(=O)Nc2cc(C)on2)C(C)C)c1OC (stereo unspecified)
  0.7	.	-8%	.	0.8	-4.5	-0.6
> N=C1/C(=C\c2ccc(OC(=O)c3ccc(F)cc3)cc2)C(=O)N=C2SC(N3CCOCC3)=NN12
  0.69	i	.	0.9	13	-2.5	2.5
> Cc1ccccc1CC1(CO)CCCN(C(=O)CCC(=O)c2ccccc2)C1 (stereo unspecified)
  0.68	i	.	-1.7	-0.1	2.0	3.1
> O=C(N/N=C/c1cccnc1)C1CCCCC1
  .	i	-8%	-3.0	.	4.5	3.5
> CN1CCN(C2=CC(=O)OC23CCCCC3)CC1
  0.74	.	16%	.	0.4	2.8	0.3
> CCc1nn(-c2ccccc2)c(=S)c2ccccc12
  0.69	.	30%	.	4.1	-0.4	-6.2
> CC(=O)N1CCc2cc(S(=O)(=O)CCC(=O)N(C)Cc3ccco3)ccc21
  0.69	i	.	-0.8	3.9	3.1	-1.0
> COc1cccc(/C=N/NC(=O)c2cc3cc([N+](=O)[O-])ccc3s2)c1O
  .	i	?	4.0	.	-0.4	60
> O=C(NCc1ccccc1)NCC12CC3CC(CC(C3)C1)C2
  0.71	.	.	-1.2	-3.1	-2.7	4.2
> COc1ccc(NC(=S)N2CCN(c3ncccn3)CC2)cc1
  0.72	i	-2%	5.7	3.0	2.6	1.1

The listing continues.
The line under a structure holds: E coli growth	FGF22 binding	Vif A3G	MLL AF4-AF9 inh	UCH37 DUB inh	RanGTP-Imp inh	HNF4A DNA FP
> CC(=O)Nc1ccc2c(c1)C(=O)N(C1CCCCC1)C2=O
  0.81	.	0%	.	-140	-3.6	1.6
> CCN(CC(=O)NCc1cccs1)C(=O)c1ccc(S(=O)(=O)Nc2cccc(C)c2C)cc1
  0.66	i	.	-4.7	-2.5	-2.4	-1.6
> O=S(=O)(Cc1ccccc1)Nc1ccccc1
  0.67	i	.	2.8	-1.0	2.7	2.9
> COc1cc(/C=C2\SC(=S)N(Nc3ncc(C(F)(F)F)cc3Cl)C2=O)ccc1O
  0.67	.	3%	.	7.4	-8.4	82*
> CC(=O)c1c(C)[nH]c(C(=O)CN(C)CC(=O)Nc2ccccc2Cl)c1C
  0.67	i	0%	4.6	5.0	.	-1.1
> O=C1NC(=O)N2CCSC2(Cc2ccccc2)N1 (stereo unspecified)
  .	i	.	0.0	.	.	-0.8
> CCCCCCOc1ccc(N2C(=O)CC(N3CCN(CCN=CC4C(=O)CC(C)(C)CC4=O)CC3)C2=O)cc1 (stereo unspecified)
  0.71	i	9%	-0.8	1.0	-2.2	-0.8
> CCOc1ccc(NC(=S)Nc2cc(OC)c(Cl)cc2OC)cc1
  0.66	i	.	13	1.5	1.2	-3.1

Ordered by formula weight (highest first): 3 of the compounds above.
The line under a structure holds: E coli growth	FGF22 binding	Vif A3G	MLL AF4-AF9 inh	UCH37 DUB inh	RanGTP-Imp inh	HNF4A DNA FP
> CCCCCCOc1ccc(N2C(=O)CC(N3CCN(CCN=CC4C(=O)CC(C)(C)CC4=O)CC3)C2=O)cc1 (stereo unspecified)
  0.71	i	9%	-0.8	1.0	-2.2	-0.8
> CC(=O)c1c(C)[nH]c(C(=O)CN(C)CC(=O)Nc2ccccc2Cl)c1C
  0.67	i	0%	4.6	5.0	.	-1.1
> CCOc1ccc(NC(=S)Nc2cc(OC)c(Cl)cc2OC)cc1
  0.66	i	.	13	1.5	1.2	-3.1
